Source: PubChem (National Center for Advancing Translational Sciences (NCATS))
gsp ag – gsp mutant agonism; gsp mutant cells, cAMP HTRF, 30 min; control for the full effect not named in the record; Potency, µM (doses to about 76.9 µM), for the others: top-dose activation (cAMP increase), most hits filed as activators; 340,000 tested, 0.13% active; active = well fitted activation curve with a large enough effect; inconclusive = small, poorly fitted or top-dose-only effect, or another doubt; inactive = no such curve, though single readings can be large or run the other way; cell line not stated here;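 note: phosphodiesterase inhibitor Ro 20-1724 added with compounds to block cAMP breakdown; potency is the fitted concentration of half-maximal effect; nearly all actives have a fitted effect of over 60% in size; about a fifth of the inactives were tested at one dose only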
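Cells in DMEM/10% FBS with G418 were pretreated with compounds in DMSO plus […] (300 uM stock) for 30 min at 37C. cAMP was measured by HTRF (cAMP-d2 plus anti-cAMP antibody-K) after 30 min at room temperature.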
PINK1 modulator – changes PINK1 expression | PINK1 immunofluorescence, high-content cytometry, 24 h | Potency, µM (top dose mostly 76.6 µM), inactives show at the top dose activation (PINK1 increase), actives largely listed as activators | 410,000 tested, 0.2% active | AID 624263; active = well fitted activation curve with a large enough effect; inconclusive = small, poorly fitted or top-dose-only effect; inactive = flat fitted curve, though single readings scatter; cell line not stated here;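 note: potency is the fitted concentration of half-maximal effect; % of control where 0% means no effect; nearly all actives have a fitted effect of over 65% in size; a mitochondrial uncoupler was the plate control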
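Fluorescence from anti-PINK1 antibody, together with nuclear and cell stains, was scanned on a laser-scanning cytometer. Before staining, stable-line cells were incubated 24 hours with compounds at 5 concentrations; primary antibody 12 h at 10 degrees C.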
Sfp inh – Sfp phosphopantetheinyl transferase inhibition; AID 1490; Biochemical Sfp PPTase activity, qHTS; 310,000 tested, 3.5% active; Potency, µM, inactives show max response, negative = inhibition, hits mostly inhibitors; active = well fitted inhibition curve with a large enough effect; inconclusive = small, poorly fitted or top-dose-only effect, or another doubt; inactive = no such curve, though single readings can be large or run the other way;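 note: the enzyme is Sfp with the accession as filed and its product quenches rhodamine fluorescence; potency is the fitted concentration of half-maximal effect; 0% = enzyme reaction without inhibitor and -100% = no enzyme wells; top concentration of the series not given in the record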
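Sfp 15 nM + cpd, 15 min RT; start w/ rhodamine-CoA 5 uM, BHQ-2-YbbR 12.5 uM (final); 50 mM Hepes pH 7.6, 10 mM MgCl2, 0.01% NP-40, 0.01% BSA; read 525/598 nm at 0 and 30 min.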
ClpP mod – qHTS Assay for Activators of ClpP | ATP-dependent Clp protease proteolytic subunit (Bacillus subtilis (strain 168)), P80244 | purified B. subtilis ClpP, FRET peptide cleavage, 20 min | Potency, µM (series often up to 57.5 µM), for the others: at the top dose activity change, negative = active | 340,000 tested, 1.9% active; active = well fitted falling curve with a large enough effect; inconclusive = small, poorly fitted or top-dose-only effect; inactive = no such curve, though single readings can be large or run the other way; note: potency is the fitted concentration of half-maximal effect; the source files actives as falling curves though it sought activators and does not explain the sign; nearly all actives have a fitted effect of over 65% in size; many hits overshoot -100%
Target sequence (P80244 whole entry, looked up): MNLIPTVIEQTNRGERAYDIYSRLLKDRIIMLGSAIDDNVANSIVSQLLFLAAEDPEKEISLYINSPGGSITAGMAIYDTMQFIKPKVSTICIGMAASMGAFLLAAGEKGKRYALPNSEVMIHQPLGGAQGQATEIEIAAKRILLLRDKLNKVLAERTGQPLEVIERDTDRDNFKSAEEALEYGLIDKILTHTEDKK
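ClpP 10 microg/mL final, pH 8 Tris/KCl buffer with BSA, glycerol, Tween-20; compound pinned in; FRET-FV substrate; RT 20 min; Ex320/Em430; ΔFRET vs ADEP 5.8 microM, DMSO, no enzyme.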
Menin MLL FP FL – displaces fluorescein MLL peptide from human menin; FP activity change, % at 61.4 µM; Fluorescence polarization, fluorescein-MLL peptide displacement from menin; 290,000 tested, under 10 active; inconclusive = falling polarisation curve, or a change in total fluorescence; inactive = total fluorescence flat and polarisation flat or rising; no compound was filed as active; the % refers to the polarisation; negative = inhibition;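 note: % of control where 0% means no effect; inhibitors lower the polarisation; unlabelled MLL peptide was the positive control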
gsp antagonist – antagonists of gsp mutant (McCune-Albright syndrome); 340,000 tested, 0.4% active; gsp-mutant cells, cAMP HTRF, 30 min; control for the full effect not named in the record; Potency, µM (top dose mostly 76.9 µM), inactives show at the highest dose activity change, negative = inhibition, usual class: inhibitors; AID 624288; active = falling curve of any shape with a large fitted effect; inconclusive = falling curve, mostly with a smaller effect; inactive = flat or rising curve; cell line not stated here;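 note: intracellular cAMP measured with PDE inhibitor Ro 20-1724 present during compound exposure; potency is the fitted concentration of half-maximal effect; % is set by controls: 0 for no effect and ±100 for the full control effect; nearly all actives have a fitted effect of over 65% in size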
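HTRF cAMP measurement after 30 min RT detection following 30 min, 37C compound treatment alongside […] (added as 300 uM solution) in G418-selected cells seeded at 2000/well and grown 16–24 h.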
D2 ag – agonists of human D2 dopamine receptor (beta-arrestin); P14416; DiscoveRx PathHunter D2 beta-arrestin, luminescence, 90 min; 100% = 57 uM dopamine signal; activation, % (test concentration not listed); 360,000 tested, 0.084% active; AID 624465; in the data active = activation above about 40%; inconclusive = about 15% to 40%; inactive = below about 15%; note: compound concentration not given in the record; the text of the record calls up to 30% inactive
Target sequence (P14416 whole entry, looked up): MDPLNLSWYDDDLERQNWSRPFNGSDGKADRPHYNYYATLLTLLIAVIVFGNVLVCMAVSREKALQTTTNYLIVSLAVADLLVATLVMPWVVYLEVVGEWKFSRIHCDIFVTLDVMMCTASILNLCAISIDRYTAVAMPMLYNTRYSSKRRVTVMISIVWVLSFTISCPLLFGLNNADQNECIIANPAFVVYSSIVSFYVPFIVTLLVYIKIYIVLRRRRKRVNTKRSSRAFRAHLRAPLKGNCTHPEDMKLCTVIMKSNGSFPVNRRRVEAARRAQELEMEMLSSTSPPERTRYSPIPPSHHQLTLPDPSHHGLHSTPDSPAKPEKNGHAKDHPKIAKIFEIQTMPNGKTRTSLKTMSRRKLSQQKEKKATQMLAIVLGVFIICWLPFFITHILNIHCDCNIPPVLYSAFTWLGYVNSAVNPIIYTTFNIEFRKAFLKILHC
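DiscoveRx PathHunter D2 beta-arrestin cells (2,100/well) attached overnight, then compound-stimulated 90 min at 37 C in HBSS/10 mM HEPES/0.1% Tween-20 buffer; beta-galactosidase complementation read by luminescence after 1 h at ambient temperature. Dopamine 57 uM final (EC100) as control.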
* marks the source's active call; other numbers are inactive results; ? = inconclusive; / = no result given; & = joins results of further samples; [ ] = another dose, or the depositor's remark.

SMILES	gsp ag	PINK1 modulator	Sfp inh	ClpP mod	Menin MLL FP FL	gsp antagonist	D2 ag
C=CCOc1cccc(C2/C(=C(\O)c3ccc4c(c3)OCCO4)C(=O)C(=O)N2CCN2CCOCC2)c1 (stereo unspecified)	?	-1.1%	14%	-1.3%	/	17%	-1.5
CCOC(=O)N1CCC2(CC1)C(C#N)=C(N)Oc1n[nH]c(C)c12	18%	1.7%	6%	2.9%	2.6	7%	-2.8
COC(=O)C(Cc1c[nH]c2ccccc12)NC(=O)c1ccccc1Br (stereo unspecified)	7%	2.6%	7%	-3.0%	0.6	-1%	-4.1
CCCCN(C=O)c1c(CC)nc2ccc(C(=O)NCCc3c[nH]c4ccccc34)cn12	/	-0.1%	/	-1.4%	/	/	5.3
CC1CCN(CCOCCOc2ccc(Br)cc2Cl)CC1	-22%	0.6%	7%	0.8%	5.5	-2%	-3.4
O=C1NCCc2c1[nH]c1ccccc21	-37%[inhibitor]	-4.3%	3%&26%	25µM*	5.2&-1.2	-12%	-1.1
O=S(=O)(c1ccccc1)c1nnn2c1nc(NC1CCN(Cc3ccccc3)CC1)c1cc(Cl)ccc12	-20%	?	9%	?	17	-16%	-4.6
CCCCOc1ccccc1-c1cc(C(=O)O)[nH]n1	-4%	1.1%	-5%	-0.3%	4.0	2%	-1.8
CN1CCN(C(=S)Nc2cc(S(=O)(=O)N3CCOCC3)ccc2Cl)CC1	-2%[15.4 µM]	2.6%	2%	/	2.4	0%	-3.3
COc1ccc(C(=O)NCC(=O)N/N=C/C(C)=C/c2ccco2)cc1OC	-4%	6.5%	-8%	-7.5%	1.7	4%	0.2
CNC(=O)c1cccn1-c1ccsc1C(=O)OC	-69%[inhibitor]	-0.8%	-5%	-3.5%	3.9	4%	-1.1
O=C(OCc1ccccc1)c1cccc(-c2nnn(Cc3ccccc3)n2)c1	5%	4.7%	14%	2.0%	1.1	-7%	-3.3
O=C(c1cc2ccccn2n1)N1CCN(c2ccccn2)CC1	-66%[inhibitor]	0.9%	-3%	-8.9%	2.9	8%	-1.9
Cc1ccc(-c2nc(N)sc2CC(=O)OCC(=O)NCCC(C)C)cc1	-60%[inhibitor]	1.1%	-54%	-6.2%	17	-3%	0.0
Cn1c(SCc2ccc(Br)cc2)nnc1-c1ccncc1	-7%	-3.2%[38.3 µM]	9%	-0.1%	-0.1	-4%	7.2
COc1ccc2c(c1)C(c1ccc([N+](=O)[O-])cc1)=NNC(c1ccco1)=N2	-28%	/	-13%	-3.8%	0.2	-15%	-1.7
C[C@@H]1CN([C@@H](C)CO)C(=O)CCCn2nncc2CO[C@H]1CN(C)Cc1ccc(-c2ccccc2)cc1	-25%	-1.6%	/	2.3%	/	/	2.9
O=C(COC(=O)c1ccccc1NC(=O)c1ccccc1)c1ccc([N+](=O)[O-])cc1	-2%	0.2%	-12%	1.0%	-1.1	-20%	10
c1ccc2cc(CN3CCOCC3)ccc2c1	-4%	2.4%[38.3 µM]	1%	-1.6%	-1.1	6%	-3.1
CC(=O)Nc1ccc(S(=O)(=O)N(Cc2ccccc2)c2ccccc2F)cc1	15%[15.4 µM]	3.1%	-15%	/	-2.4	-17%	-4.4
CCOc1cc(C(=O)N2CCOCC2)ccc1OCc1ccccc1	-5%	-1.6%	11%	-0.5%	0.5	14%	-1.6
CC(=O)N(C)N1c2ccccc2CCc2ccccc21	6%	2.1%	5%	/	3.8	-9%	3.1
O=C(Cc1nc2ccccc2[nH]1)c1ccc(Cl)cc1	-8%[15.4 µM]	9.8%	16%	/	-2.9	9%	-2.3
COc1ccc(-c2cnnc(N/N=C/c3ccc(O)c(O)c3)n2)cc1	3%	8.2%	-25%	1.2%	0.0	-2%	4.5
CCOC(=O)Cc1ccc(Nc2nc(NC)nc3ccsc23)cc1	/	3.1%	/	-13%	/	/	1.2
Cc1cc(Br)cn2c(Cc3cccc(F)c3)c(-c3cccc(Br)c3)nc12	/	2.8%	/	-2.7%	/	/	-2.8
COc1ccc(OC)c(S(=O)(=O)Nc2ccccc2C(=O)N2CCCCC2)c1	?	1.4%	/	-2.8%	/	5%	1.3
Cc1cc(C)cc(NC(=O)Nc2ccccc2N2CCCCC2)c1	-11%[15.4 µM]	1.2%	2%	0.0%	-0.4	11%	-4.1
CC1CCCN(S(=O)(=O)c2ccc3c(c2)c(=O)nc2ccc(Cl)cn23)C1 (stereo unspecified)	?	3.4%	9%	3.6%	0.2	40µM*	-2.4
O=c1c2cc(Br)ccc2nc(-c2cccc(C(F)(F)F)c2)n1O	2%	4.7%	19%	2.0%	1.8	3%	-9.6
CCOC(=O)c1c(NC(=O)CSC(=S)N(C)C)sc(C)c1C	29%	2.2%	6%	-0.4%	0.4	-6%	0.9
Cn1c(=O)oc2cc(S(=O)(=O)NCc3ccco3)ccc21	-28%	0.7%	-27%	-3.1%	-5.4	10%	-4.0
O=S(=O)(/N=C(/Nc1ccccc1)C(F)(F)F)c1ccccc1	-26%	3.0%	10%	?	2.4	6%	2.5
O=C(COC(=O)C1CCN(S(=O)(=O)c2ccccc2)CC1)NCCc1ccccc1	10%	0.1%	/	-1.6%	/	-2%	-0.4
CSc1ccccc1C(=O)NC1CCCN(c2ccc(C(F)(F)F)cn2)C1 (stereo unspecified)	-22%	0.2%	8%	-11%	-0.1	-17%	3.6
COc1ccccc1CN(C)C(=O)c1cccc(S(=O)(=O)N2CCN(Cc3ccccc3)CC2)c1	10%[15.4 µM]	-0.1%	/	-2.6%	/	-21%	-5.1
Cc1ccccc1-n1c(=O)/c(=C\c2ccco2)s/c1=C(/C#N)C(=O)Nc1ccccc1	11%	?	50µM*	4.9%	?	-9%	-0.9
CC(OC(=O)CCSc1ccccc1)C(=O)Nc1ccc(S(N)(=O)=O)cc1 (stereo unspecified)	8%[15.4 µM]	-3.7%	/	/	/	-3%	-2.4
CCOC(=O)c1c(C)[nH]c(C)c1S(=O)(=O)N(C)CC(=O)Nc1cc(C)ccc1OC	-9%	4.0%	7%	0.0%	/	1%	1.5
Cc1ccc(S(=O)(=O)N2CCCCC2C(=O)Nc2ccc(N(C)C)cc2)cc1 (stereo unspecified)	-1%	2.0%	/	/	/	-9%	-4.4
CC(C)N(C(=O)CSc1nc2ccccc2n1Cc1ccccc1)C(C)C	-13%	-0.3%	0%	1.6%	-0.9	-19%	-5.6
CCOCCCn1c(=O)c(NC(=O)c2ccc(OCC)cc2)c2n(c1=S)CCCCC2	26%	-3.7%	16%	-5.4%	0.5	5%	-1.2
CCCCOc1ccc(C(=O)NCC(=O)NCc2ccccn2)cc1	-8%[15.4 µM]	4.7%	/	/	/	10%	-5.8
CCN1CCCC1CNC(=O)CS(=O)(=O)Cc1nc(-c2ccccc2C)oc1C (stereo unspecified)	-33%[inhibitor]	11%	-5%	-1.5%	0.6	13%	0.2
Cc1cnc(C(=O)NC2CC(C)(C)Cc3c2cnn3-c2ccccc2)cn1 (stereo unspecified)	-34%[inhibitor]	5.6%	25%	-4.6%	/	-6%	-0.2
CCn1nc(C)c(CN2CCC(C(=O)Nc3cccc(-c4cccc(Cl)c4)c3)CC2)c1C	-38%[inhibitor]	0.8%	-17%	2.6%	/	8%	-4.7
COc1ccc(CCc2ccnc3ccccc23)cc1	-2%	5.3%	/	/	/	-21%	12
NC(=O)C1(N2CCCCC2)CCN(C(=O)c2cc(COc3c(F)cccc3F)on2)CC1	-34%[inhibitor]	2.3%	/	-1.4%	/	/	-2.3

The last two entries of the part before lead into the next:
SMILES	gsp ag	PINK1 modulator	Sfp inh	ClpP mod	Menin MLL FP FL	gsp antagonist	D2 ag
COc1ccc(CCc2ccnc3ccccc23)cc1	-2%	5.3%	/	/	/	-21%	12
NC(=O)C1(N2CCCCC2)CCN(C(=O)c2cc(COc3c(F)cccc3F)on2)CC1	-34%[inhibitor]	2.3%	/	-1.4%	/	/	-2.3
COc1ccccc1NC(=O)COc1ccc(Br)cc1CO	2%	-5.9%[38.3 µM]	-11%	1.4%	-2.9	-13%	-1.0
CCCCCCN1C[C@@H](n2cc(C3CC3)nn2)[C@H](O)C[C@@H]1c1ccccc1	-12%	0.5%	/	2.3%	/	/	-9.6
CC(Sc1nnc(-c2ccco2)n1C)C(=O)N1C(C)CCCC1C (stereo unspecified)	-17%	2.0%	-6%	1.0%	2.0	-12%	0.6
O=C(Cn1c(C(F)(F)F)nc2ccccc21)OCC(=O)c1c[nH]c2ccccc12	-63%[inhibitor]	0.2%	-6%	-1.8%	8.8	-38%	-1.2
O=C(NCc1ccccc1)c1ccc(Cl)cc1	17%	-0.8%	-15%	-0.2%	-0.2	10%	4.1
CCOC(=O)c1ccc(NC(=S)Nc2cccc(C)n2)cc1	1%	2.1%	-10%	-0.4%	0.4	-12%	-0.9
COc1cccc(N=C(N)N=C(N)N)c1	-4%	-0.8%	22%	-0.1%	0.2	6%	-1.5
O=C(CN1CCOCC1)Nc1ncc(Cc2cccc(Cl)c2Cl)s1	-31%[inhibitor]	1.8%	-18%	-1.2%	2.2	15%	0.8
c1ccc(-c2noc(CCC3CCCC3)n2)cc1	25%	10%	18%	2.3%	-5.6	7%	-2.5
O=C(O)C1=C[C@@H](c2ccc(C(F)(F)F)cc2)C[C@@H](OCCCCO)O1	/	1.3%	/	0.2%	/	?	-2.1
COc1cccc(NC(=S)N(CCCN2CCCC(C)C2)Cc2cccs2)c1 (stereo unspecified)	7%[15.4 µM]	-0.7%	19%	-19%	-0.7	9%	0.7
O=C(NCc1cccnc1)c1cccc(S(=O)(=O)N2CCCCC2)c1	?	-7.4%[38.3 µM]	-8%	-1.1%	3.8	2%	-0.3
CSc1ccc(/C=N/NC(=O)CN2CCN(Cc3ccccc3)CC2)cc1	-1%[15.4 µM]	-1.2%	12%	/	-0.7	3%	-4.5

Outcome played no part in choosing rows (roughly 5.1% active in at least one column).
